Screens from PubChem.
Beta apoptosis: beta cell apoptosis inhibition. 300,000 tested, 0.8% active. protection from apoptosis, % (no concentration beside the values). INS-1E cytokine-induced death, ATP luminescence, 48 h; percent of positive-control rescue, neutral wells zero;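 active = all replicates at 75% or more, or half of them and the mean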;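 also: 0% = cytokine-treated negative control wells and 100% = positive control rescue; higher means more ATP so stronger rescue from cytokine killing; wells of about 40 µL received 100 nL stock; the first replicate is given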
Ecoli growth: blocks Escherichia coli growth; 330,000 tested, 0.21% active; OD600, 23 h; stronger effect = lower value; OD600 absorbance (concentration not given with the values);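 active = OD600 absorbance below the run mean of sample wells minus 3.6 SD, in any replicate, cut at about 0.56 in these data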;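 also: stock transfer was 300 nL into about 60 µL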
T cruzi repl: T. cruzi replication inhibition. 300,000 tested, 1.4% active. inhibition, % (concentration not given with the values). T. cruzi beta-gal in NIH3T3, luminescence, 90 h;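 active = mean inhibition across valid replicates above about 55%, limit read from the data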;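 also: signal also drops with host cell toxicity which is not excluded here; 0% = plate median of DMSO wells and 100% = zero luminescence signal; higher percent means less beta-gal luminescence so fewer parasites; stock transfer was 50 nL into about 50 µL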
UCH37 DUB inh: human UCH37 deubiquitinating enzyme inhibition; purified proteasome/UCH37, Ub-AMC cleavage fluorescence; 330,000 tested, 0.33% active; AID 588478; inhibition, % (test concentration not listed); Q9Y5K5;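 active = mean of two replicates above 20%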;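 also: 0% = compound-free wells with enzyme and 100% = wells lacking proteasome; stock transfer was 100 nL into about 20 µL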
Target sequence (Q9Y5K5 whole entry, looked up): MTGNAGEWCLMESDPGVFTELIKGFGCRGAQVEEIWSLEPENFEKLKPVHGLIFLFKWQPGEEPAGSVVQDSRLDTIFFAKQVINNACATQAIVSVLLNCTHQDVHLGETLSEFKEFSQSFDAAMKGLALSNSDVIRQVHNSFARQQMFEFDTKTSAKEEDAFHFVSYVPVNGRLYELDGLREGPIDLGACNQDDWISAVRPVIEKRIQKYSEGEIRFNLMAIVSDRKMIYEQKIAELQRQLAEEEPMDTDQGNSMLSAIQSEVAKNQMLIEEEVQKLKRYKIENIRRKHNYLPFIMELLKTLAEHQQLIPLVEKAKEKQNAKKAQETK
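Test system – human UCH37 enzyme supplied as purified proteasome complex · Incubation – 30 min preincubation with enzyme, 25 min cleavage at room temperature · Detection – AMC fluorescence from Ub-AMC cleavage, excitation 355 nm, emission 460 nm · Benchmarks – no-proteasome wells (full inhibition) and compound-free wells (no inhibition)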
AF4-AF9 inh: inhibitors of human MLL-AF4/AF9 interaction; 350,000 tested, 0.47% active; AlphaScreen, biotin-AF4 peptide binding to FLAG-AF9; P42568; AID 651704; inhibition, % at 10 µM;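 active = every replicate reaching a set inhibition limit, whatever the replicate mean, cut at about 25% in these data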;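 also: 0% = plate neutral control median and 100% = total signal loss; the record names both 10 and 1 µM as test concentration; the first replicate is given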
Target sequence (P42568 whole entry, looked up): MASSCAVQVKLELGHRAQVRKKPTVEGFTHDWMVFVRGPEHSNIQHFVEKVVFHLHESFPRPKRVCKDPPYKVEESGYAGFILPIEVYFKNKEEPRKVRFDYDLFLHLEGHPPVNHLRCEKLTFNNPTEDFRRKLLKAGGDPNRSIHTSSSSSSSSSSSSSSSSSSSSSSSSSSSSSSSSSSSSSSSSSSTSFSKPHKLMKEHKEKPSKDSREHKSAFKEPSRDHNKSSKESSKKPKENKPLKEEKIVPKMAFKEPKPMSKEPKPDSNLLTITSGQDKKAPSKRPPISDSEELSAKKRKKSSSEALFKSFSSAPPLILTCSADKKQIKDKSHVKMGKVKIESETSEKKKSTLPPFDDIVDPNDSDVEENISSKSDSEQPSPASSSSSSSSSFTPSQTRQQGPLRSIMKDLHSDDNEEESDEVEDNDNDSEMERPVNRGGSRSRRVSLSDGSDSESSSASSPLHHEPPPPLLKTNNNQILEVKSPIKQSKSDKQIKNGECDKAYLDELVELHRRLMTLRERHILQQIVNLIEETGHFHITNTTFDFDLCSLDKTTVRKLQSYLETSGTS
A1 inh: inhibitors of the anti-apoptotic protein A1, read as caspase activation; caspase activation, % (no concentration beside the values); AID 2462; 330,000 tested, 0.066% active; MEF A1-2A-BIM cells, Caspase-Glo 3/7 luminescence, 3 h; percent of clofoctol response, vehicle zero;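 active = over half of replicate activation scores above 10%, or exactly half above 10 with the replicate mean above 10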;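 also: wells of about 30 µL received 50 nL stock; many hits fall short of the cut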
Ecoli rRNA inh: inhibitors of bacterial rRNA selective over humanized ribosomes. GFP signal change (wild-type ribosome), % (test concentration not listed). AID 720706. E. coli WT GFP vs humanized-ribosome RFP mutants, fluorescence, 24 h; stronger effect = lower value; DMSO median 0, no signal -100. 350,000 tested, 1.6% active;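 active = significant combined selectivity score with lowered wild-type GFP, culture density cut under 30%, mutant RFP and density less affected; inactive = any of these conditions unmet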; also: one replicate is shown; some compounds called inactive have numbers as strong as hits
FGF22 binding: binders of recombinant human FGF22 by thermal shift; Q9HCT0; calls only at 9.99 µM; 340,000 tested, 1.5% active; SYPRO orange fluorescence; percent of sucrose octasulfate shift, DMSO zero;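 active = melting point raised past a set limit in the mean and every replicate; three in four hits are not shown here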
Target sequence (Q9HCT0 whole entry, looked up): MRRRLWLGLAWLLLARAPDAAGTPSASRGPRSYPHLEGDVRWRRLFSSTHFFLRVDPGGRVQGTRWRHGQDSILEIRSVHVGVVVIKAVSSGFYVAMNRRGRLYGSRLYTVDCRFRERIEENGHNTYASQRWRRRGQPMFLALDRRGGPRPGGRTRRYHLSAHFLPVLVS
Ecoli rRNA inh OD600: recorded beside Ecoli rRNA inh, whose call it bears; OD600 change, %; measured here: OD600 growth;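 optical density of the mix in the first replicate; 0 = DMSO median and -100 = no signal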
Ecoli rRNA inh RFP: further read-out of Ecoli rRNA inh, marked with its call; RFP signal change, %; measured here: RFP humanized mutant strains;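 first replicate; 0 = DMSO median and -100 = no signal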
An asterisk follows results filed as active; i = inactive; · = not tested or not shown.

1. CC1CC(CC(C)C(=O)NC(=S)Nc2ccc(S(N)(=O)=O)cc2)C(=O)O1 (centres undefined)
2. COc1ccc2ncc(S(=O)(=O)c3ccccc3)c(N3CCC4(CC3)OCCO4)c2c1
3. COc1cccc(C(=O)c2cc3cc(Cl)ccc3[nH]2)c1
4. C=CCNC(=S)NNC(=O)Cn1c(-c2ccccc2)cc(=O)n2ncnc12
5. CC(c1nccs1)N(C)c1nc2nonc2nc1N(C)C (centres undefined)
6. Cc1ccc(N2C(=O)[C@@H]3C(C(=O)C(c4ccccc4)c4ccccc4)=NN[C@@H]3C2=O)cc1
7. Cc1ccc2[nH]c(=O)c(CN(CCO)C(=O)N(C)C)cc2c1
8. Cc1nnnn1/C(=C\c1ccccc1)C(=O)OCC(=O)Nc1ccc(Cl)cc1F
9. Clc1cccc2c1Sc1ccccc1CC2N1CCNCC1 (centres undefined)
10. O=C1Nc2ccc(S(=O)(=O)N3CCCC3)c3cccc1c23
assay / entry,1,2,3,4,5,6,7,8,9,10
Beta apoptosis,-2,·,-1,0,-3,-3,-4,-1,5,-43
Ecoli growth,0.67,0.69,0.66,0.65,0.7,0.71,0.72,0.7,0.53,0.69
T cruzi repl,-6,19,7,-9,-20,-21,2,-54,26,13
UCH37 DUB inh,6.0,3.0,-6.7,1.7,9.2,4.2,-15,7.4,6.5,-89
AF4-AF9 inh,-1.4,·,-8.1,·,-0.1,·,·,-16,·,·
A1 inh,0.0,0.7,-0.3,-0.5,1.7,-0.7,0.3,-0.5,0.2,1.2
Ecoli rRNA inh,3,·,2,0,-3,·,6,3,·,·
Ecoli rRNA inh OD600,2,·,9,4,1,·,11,-20,·,·
Ecoli rRNA inh RFP,-0.1,·,-2.1,-2.4,-1.6,·,-0.9,7.7,·,·
FGF22 binding,i,·,i,i,i,·,·,i,·,·

11. Cc1c2c(nc3nnnn13)CCCC2
12. Cc1cc(C(=O)NNC(=O)c2cccc(C(F)(F)F)c2)no1
13. COCCNC(=S)NN=C1CCCCC1
14. C/C(=N\OCc1ccccc1)c1c(O)cc(C(C)C)n(-c2ccccc2)c1=O
15. O=C(CN1C(=O)NC2(CCCCC2)C1=O)Nc1ccc(Cl)c(S(=O)(=O)N2CCOCC2)c1
16. CCSc1nnc(NC(=O)CSc2nnc(-c3c[nH]c4ccccc34)n2C)s1
17. CSCCC(NC(=O)c1cc(S(=O)(=O)N2CCOCC2)ccc1F)c1nc2ccccc2[nH]1 (centres undefined)
18. O=C(Nc1nccs1)c1cccc(NC(=O)c2ccco2)c1
19. C=C(C)CSCc1nc2ccccc2[nH]1
20. COc1ccccc1-n1cnnc1SCC(=O)Nc1cc(C(C)(C)C)nn1-c1ccccc1
assay / entry,11,12,13,14,15,16,17,18,19,20
Beta apoptosis,-6,2,3,7,-1,-1,-5,-6,·,5
Ecoli growth,0.72,0.69,0.71,·,0.64,0.77,0.62,0.73,0.69,0.7
T cruzi repl,-6,2,-16,-2,·,3,·,-10,-10,12
UCH37 DUB inh,2.7,2.0,1.7,·,0.3,5.5,-1.6,0.4,-0.8,4.3
AF4-AF9 inh,-3.0,-2.1,0.8,0.8,0.2,-1.2,0.7,·,·,·
A1 inh,0.9,-0.6,0.0,-0.5,-0.3,-0.7,-0.2,0.0,-0.1,-0.4
Ecoli rRNA inh,14,0,13,-12,-4,0,10,·,·,·
Ecoli rRNA inh OD600,19,5,4,-12,-3,8,16,·,·,·
Ecoli rRNA inh RFP,1.5,-1.4,-0.7,-9.4,-0.6,1.2,-1.9,·,·,·
FGF22 binding,i,i,i,i,i,i,i,·,·,·

21. CCCCCN(C(=O)CCC(=O)OCc1cccc(C(F)(F)F)c1)c1c(N)n(CCCC)c(=O)[nH]c1=O
22. O=C(NCc1ccco1)c1cc2c(s1)CCCCC2
23. O=C(CSc1nnc(-c2ccco2)n1Cc1ccco1)Nc1ccccc1
24. O=C(CSc1nncs1)Nc1ccc(S(=O)(=O)N2CCCC2)cc1
25. COc1cc(C2NC(=O)NC(C)=C2C(=O)OCC2CCCCC2)ccc1O (centres undefined)
26. CCOC(=O)Cc1nnc(NC(=O)COc2ccc(OC)cc2)s1
27. O=C(NC(NCc1cccnc1)C(Cl)(Cl)Cl)c1cccc2ccccc12 (centres undefined)
28. Cc1nc2ccccc2n1CCC(=O)Nc1cccc(F)c1
29. Cc1cccc(C(=O)Nc2ccc3c(c2)C(=O)N(CC(C)C)C3=O)c1
30. Cc1occc1-c1nnc(SCC(=O)NC2CC2)n1C(C)C
assay / entry,21,22,23,24,25,26,27,28,29,30
Beta apoptosis,-11,-4,-1,·,-4,-2,5,1,·,-6
Ecoli growth,0.68,0.67,0.72,0.68,0.73,0.62,0.68,0.77,0.66,0.68
T cruzi repl,13,-10,0,-14,7,-21,48,·,8,-7
UCH37 DUB inh,1.7,3.3,5.7,-26,4.2,0.0,5.7,1.5,-113,0.0
AF4-AF9 inh,0.0,·,·,4.5,1.1,·,·,·,-1.9,-0.3
A1 inh,0.6,-3.2,-0.9,-0.4,1.0,-0.4,0.8,0.0,-0.5,1.4
Ecoli rRNA inh,14,·,·,4,4,·,·,·,9,7
Ecoli rRNA inh OD600,13,·,·,0,10,·,·,·,16,-1
Ecoli rRNA inh RFP,0.3,·,·,-1.4,2.8,·,·,·,1.7,-4.0
FGF22 binding,i,·,·,i,·,·,·,·,i,i

31. CC(C)Oc1ccc(N2C(=O)c3ccccc3C2=O)cc1
32. Cc1ccc(S(=O)(=O)N2CCC(C(=O)NCC3CC3)CC2)cc1
33. Cc1ccc(C)c(SCc2noc(C(=O)NC(C)C)c2C(=O)O)c1
34. N#Cc1c(-c2ccccc2)[nH]c(=S)[nH]c1=O
35. COc1ccc(OC)c(/C=N/Nc2nc(C)cc(=O)[nH]2)c1
36. COc1cccc(NC(=O)N2CCCC2C(=O)NCc2ccc(Cl)cc2)c1 (centres undefined)
37. CCOC(=O)C(=Nc1ccc(Cl)cc1)NO
38. O=C(O)c1cnn2c(-c3ccccc3)ccnc12
39. CCOC(=O)c1c(NC(=O)/C=C/C(=O)O)sc(C)c1-c1ccc(F)cc1
40. N#CC1CCN(c2ncccc2[N+](=O)[O-])CC1
assay / entry,31,32,33,34,35,36,37,38,39,40
Beta apoptosis,0,-4,-5,-3,-11,-4,-2,4,-10,-5
Ecoli growth,0.71,0.69,0.67,0.69,·,0.69,0.66,0.72,0.7,0.63
T cruzi repl,-4,-16,0,-9,10,-4,5,-1,15,-11
UCH37 DUB inh,2.0,3.5,-1.1,16,·,5.4,5.3,-11,13,2.7
AF4-AF9 inh,·,-1.1,-6.3,·,-0.3,-11,·,-1.8,-1.3,3.7
A1 inh,-2.1,1.0,-0.6,0.5,-0.1,-0.2,2.0,0.8,-0.5,0.5
Ecoli rRNA inh,·,3,1,·,5,-3,·,13,-23,-4
Ecoli rRNA inh OD600,·,5,2,·,16,14,·,9,-43,-5
Ecoli rRNA inh RFP,·,0.1,2.1,·,3.9,-0.6,·,-0.3,-4.9,0.8
FGF22 binding,·,i,i,·,·,i,·,i,i,i

41. O=C(COC(=O)c1ccccn1)Nc1nc(-c2cccc([N+](=O)[O-])c2)cs1
42. COC(=O)c1c(NC(=O)Cn2cc([N+](=O)[O-])cn2)sc2c1CCC2
43. CCCNc1cc(=S)nc(N)[nH]1
44. Cc1cccc(CS(=O)(=O)c2ncc(Cl)c(C(=O)NCc3ccc4c(c3)OCO4)n2)c1
45. Cc1ncc(CCl)c2c1OC(C)(C)OC2
46. O=C(NNC(=S)Nc1ccccc1Cl)c1ccncc1
47. CCN(C(=O)CSc1ccc2ccccc2n1)C1CCCCC1
48. Cc1nn(-c2ccccc2)c(C)c1/C=C/C(=O)OCC(=O)N(C)C1CCS(=O)(=O)C1 (centres undefined)
49. COc1ccc(OCc2cc(C(=O)N3CCCC(CO)C3)no2)c2ccccc12 (centres undefined)
50. Cc1cccc(NC(=O)c2ccc3c(=O)n(CC4CCCO4)c(=S)[nH]c3c2)c1 (centres undefined)
51. COc1ccccc1C(=O)NC(C(=O)NCCc1nc2ccccc2[nH]1)=C(C)C
52. c1ccc(-c2csc(NC3CCCCC3)n2)cc1
53. COc1ccc(-c2nc(CSCC(=O)N3CCC(C(N)=O)CC3)c(C)o2)cc1OC
assay / entry,41,42,43,44,45,46,47,48,49,50,51,52,53
Beta apoptosis,-1,2,0,24,-3,-1,-1,-3,-4,·,·,0,-3
Ecoli growth,0.64,0.76,0.69,0.72,0.71,0.64,0.66,0.73,0.72,0.69,0.71,0.67,0.69
T cruzi repl,5,44,-19,-14,-10,-16,·,-2,2,-3,-5,-2,-3
UCH37 DUB inh,2.4,1.1,1.5,5.3,-4.2,7.4,5.0,-0.2,5.0,3.4,0.9,0.9,3.4
AF4-AF9 inh,-7.7,·,-2.8,-2.7,·,·,4.4,0.6,2.5,-2.8,1.1,-3.0,-0.2
A1 inh,-0.4,0.5,0.0,-1.1,0.5,-3.4,0.6,-0.1,-0.7,0.7,0.8,-5.2,0.6
Ecoli rRNA inh,1,·,-1,8,·,12,-27,-5,-14,-2,0,-2,3
Ecoli rRNA inh OD600,3,·,-13,10,·,4,-51,-5,-17,-3,0,1,4
Ecoli rRNA inh RFP,7.2,·,-3.6,0.5,·,5.3,-8.9,-2.8,0.8,-3.7,-0.3,-4.3,0.6
FGF22 binding,i,·,i,i,·,i,i,i,i,i,i,i,i

Structural class: those above with two or more sulfur atoms (4)
1. CC1CC(CC(C)C(=O)NC(=S)Nc2ccc(S(N)(=O)=O)cc2)C(=O)O1 (centres undefined)
16. CCSc1nnc(NC(=O)CSc2nnc(-c3c[nH]c4ccccc34)n2C)s1
17. CSCCC(NC(=O)c1cc(S(=O)(=O)N2CCOCC2)ccc1F)c1nc2ccccc2[nH]1 (centres undefined)
24. O=C(CSc1nncs1)Nc1ccc(S(=O)(=O)N2CCCC2)cc1
assay / entry,1,16,17,24
Beta apoptosis,-2,-1,-5,·
Ecoli growth,0.67,0.77,0.62,0.68
T cruzi repl,-6,3,·,-14
UCH37 DUB inh,6.0,5.5,-1.6,-26
AF4-AF9 inh,-1.4,-1.2,0.7,4.5
A1 inh,0.0,-0.7,-0.2,-0.4
Ecoli rRNA inh,3,0,10,4
Ecoli rRNA inh OD600,2,8,16,0
Ecoli rRNA inh RFP,-0.1,1.2,-1.9,-1.4
FGF22 binding,i,i,i,i

Record cards, from the list above.
`Cc1ncc(CCl)c2c1OC(C)(C)OC2` is listed as Beta apoptosis = -3; Ecoli growth = 0.71; T cruzi repl = -10; UCH37 DUB inh = -4.2; AF4-AF9 inh = ·; A1 inh = 0.5; Ecoli rRNA inh = ·; Ecoli rRNA inh OD600 = ·; Ecoli rRNA inh RFP = ·; FGF22 binding = ·
`O=C(COC(=O)c1ccccn1)Nc1nc(-c2cccc([N+](=O)[O-])c2)cs1` is listed as Beta apoptosis = -1; Ecoli growth = 0.64; T cruzi repl = 5; UCH37 DUB inh = 2.4; AF4-AF9 inh = -7.7; A1 inh = -0.4; Ecoli rRNA inh = 1; Ecoli rRNA inh OD600 = 3; Ecoli rRNA inh RFP = 7.2; FGF22 binding = i

Some of the compounds tested; rates above refer to the full screens.
